Bm FixLJ act: activators of Burkholderia fixLJ two-component system; actives 0.3% (n = 29,000); z-score (concentration not given with the values); B. multivorans fixK-promoter GFP reporter, 18 h; active compounds read high;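 active means replicate mean overnight rise in green fluorescent reporter signal, 3 or more SD over negative controls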;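 further: score is relative to vehicle wells of the plate; 300 nL library stock went into each well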
* = called active by the depositor; & = joins results of further samples. Only part of the results is shown; count on the stated rates, not on these rows.

The first five records (preview)
SMILES | Bm FixLJ act
Cc1nn(CC(=O)NC2CCCCC2)c(=O)c2cc3cc(F)ccc3n12 | -0.99
Cc1c(C)c2c(cc(C)c3c(-c4ccccc4)coc32)oc1=O | -2.3
Cc1ccc(C)c(N2CCN(C(=O)C3CCC(CNS(=O)(=O)c4cccs4)CC3)CC2)c1 (stereo not drawn) | -0.79
Cc1noc(/C=C/c2ccco2)c1S(=O)(=O)N1CCC(C(=O)Nc2ccc(F)cc2F)CC1 | -1.92
CCOc1ccc(-c2nonc2NC(=O)c2oc3c(C)c(C)ccc3c2C)cc1OCC | -1.1

This part in full (from the top)
SMILES | Bm FixLJ act
Cc1nn(CC(=O)NC2CCCCC2)c(=O)c2cc3cc(F)ccc3n12 | -0.99
Cc1c(C)c2c(cc(C)c3c(-c4ccccc4)coc32)oc1=O | -2.3
Cc1ccc(C)c(N2CCN(C(=O)C3CCC(CNS(=O)(=O)c4cccs4)CC3)CC2)c1 (stereo not drawn) | -0.79
Cc1noc(/C=C/c2ccco2)c1S(=O)(=O)N1CCC(C(=O)Nc2ccc(F)cc2F)CC1 | -1.92
CCOc1ccc(-c2nonc2NC(=O)c2oc3c(C)c(C)ccc3c2C)cc1OCC | -1.1
Cc1cc(C)cc(NC(=O)Cn2nnc(C(=O)Nc3cc(C)cc(C)c3)c2N)c1 | -0.88
CCc1ccc(C(=O)NC2=NC(c3cc(OC)ccc3OC)CC(=O)N2)cc1 (stereo not drawn) | 1.05
Cc1ccc(CCNC(=O)c2ccc3c(c2)N(Cc2cc(C)ccc2C)C(=O)c2ccccc2S3=O)cc1 (stereo not drawn) | -0.11
CCn1c(=O)cc(SCC(=O)NCCc2cc(OC)ccc2OC)c2ccccc21 | -0.52
Cc1ccccc1-c1nc(CS(=O)(=O)CC(=O)N2CCN(c3ccccc3)CC2)c(C)o1 | -0.89
Cc1ccc(N(CC(=O)Nc2ccc(C)c(F)c2)S(=O)(=O)c2c(C)n[nH]c2C)cc1 | -0.77
Cc1cccc(NC(=O)CSc2nc3c(sc4ccccc43)c(=O)n2CCCC(=O)NC2CCCC2)c1 | -0.52
CCOC(=O)c1ccc(NS(=O)(=O)c2ccc3c(c2)CCN3C(=O)CC)cc1 | -2
Cc1cc(C)cc(NC(=O)NCC2CCN(Cc3cc(C)ccc3C)CC2)c1 | -0.47
CNC(=O)c1noc(CNC(=O)N2CCCC(COc3ccccc3C)C2)n1 (stereo not drawn) | 0.73
Nc1nn(-c2ccccc2)nc1C(=O)OCc1ccc(Cl)cc1 | -0.26
CCc1ccc(NC(=O)c2cnn(-c3ccccc3)c2-n2cccc2)cc1 | 0.48
Cc1oc2c(cc(NS(=O)(=O)c3ccc(Br)cc3)c3ccccc32)c1C(=O)OCc1ccccc1 | -1.7
CCOc1ccc(N2CC(c3nc4ccccc4n3CCCOc3ccccc3OC)CC2=O)cc1 (stereo not drawn) | -1.89
COCCCNC(=O)c1c(NC(=O)c2cc(=O)c3cc(C)c(C)cc3o2)sc2c1CCCC2 | -0.42
COc1ccc(-c2[nH]c3ccccc3c2SCCNC(=O)c2ccc(S(=O)(=O)N(C)C)cc2)cc1 | 0.8
CCc1nc2nc(C)cc(Nc3cc(Cl)ccc3OC)n2n1 | -0.59
COc1cc2c(cc1OC)-c1cc(=Nc3c(C)cc(C)cc3C)n(C)c(=O)n1CC2 | -0.87
Cc1ccc(CN2CCC(c3nnc(Cn4cccn4)n3C3CC3)CC2)s1 | -1.55
COC(=O)c1ccc(NC(=O)Cn2cnc3c2c(=O)n(C)c(=O)n3C)cc1 | 0.58
Cc1ccc(-c2nc3ccccn3c2Nc2ccc3c(c2)OCO3)o1 | -1.53
COc1ccc(CCNC(=O)c2ccc3c(c2)N(Cc2cc(C)ccc2C)C(=O)c2ccccc2S3=O)cc1OC (stereo not drawn) | 0.08
CCOC(=O)c1c(C)n(-c2ccc(OC)cc2)c2ccc(OC(=O)COc3ccccc3)cc12 | 1.69
Cc1cc(CC2CN(C(=O)c3cc(O)ccc3F)CC2O)on1 (stereo not drawn) | 1.25
Cc1ccc(S(=O)(=O)c2cn(Cc3cccc(C)c3)c3cc4c(cc3c2=O)OCO4)cc1 | 1.58
Cc1ccc2c(c1)C(c1ccccc1)N(C(=O)c1ccccc1F)CC(=O)N2 (stereo not drawn) | -1.74
Cc1cc(C)n(CC(=O)N2CCCN(C(=O)CCc3c(C)noc3C)CC2)n1 | -1.16
COc1ccc(C(=O)c2cn(Cc3ccccc3F)c3cc4c(cc3c2=O)OCCO4)cc1OC | -1.17
COc1ccc(C(=O)CC2(O)C(=O)N(Cc3ccccc3)c3ccc(Br)cc32)cc1 (stereo not drawn) | -1.66
CN(Cc1nc(C2CC2)no1)C(=O)c1cc(-c2ccccc2)on1 | -1.06
COCCCNC(=O)c1sc2nc(C)c(C(=O)Nc3ccc(C)cc3C)c(-c3ccc(Cl)cc3)c2c1N | -1.35
COc1ccc(NC(=O)c2cnc[nH]2)cc1 | 0.77
CCOc1ccc(-n2c(=O)c3c4c(sc3n(CC(=O)NC(C)CC)c2=O)CCCCC4)cc1 (stereo not drawn) | -1.2
CCOc1ccc(Nc2nc3ccccc3n3c(CC)nnc23)cc1 | -1.77
COc1ccc(OC)c(CCNC(=O)c2csc3c2CCCCC3)c1 | 0.09
CCCCCOc1ccccc1CN1C(=O)C(=O)c2cc(C)ccc21 | -0.13
CC(C)(C)NCC(O)c1cc(O)cc(O)c1 (stereo not drawn) | 0.39
O=C(Nc1nc(-c2ccc(F)cc2)cs1)C1CCN(C2CCS(=O)(=O)C2)CC1 (stereo not drawn) | -1.23
COC(=O)c1ccc(OC)c(Cn2c(=O)n(Cc3ccccc3)c(=O)c3c2c2cc(OC)ccc2n3C)c1 | 0.42
Cc1cc(Cl)cc(Cl)c1CNC(=O)c1cccc(-n2cnnc2)n1 | -1.46
COCCCNC(=O)C1CCN(c2cc(C)nc3c(-c4ccc(Cl)cc4)c(C)nn23)CC1 | -1.02
CCNc1nc(C)c(C(=O)NCCOc2cccc3cccnc23)s1 | -0.47
Cc1n[nH]c(C)c1CC(=O)NCc1nc(-c2ccccn2)no1 | 0.98
CN(C)C(=O)CN1CCC(N2CC(COc3ccc(F)cc3)OCC2=O)CC1 (stereo not drawn) | -1.95
COc1cccc(Cn2cc(C(=O)c3ccccc3)c(=O)c3cc4c(cc32)OCO4)c1 | -1.05
CCCN(CCC)C(=O)Cn1c(=O)n(Cc2ccc(C(=O)NCCc3ccc(OC)c(OC)c3)cc2)c(=O)c2ccccc21 | 1.18
CCOc1ccc(C(=O)Nc2cccc(OCc3cc(=O)n4cc(C)sc4n3)c2)cc1 | 0.19
Cc1cccc(NC(=O)c2sc3nc4c(cc3c2N)CN(Cc2ccccc2)CC4)c1 | 0.66
CCc1ccc(N(CC)C(=O)c2cc3c(=O)oc4ccc(C)cc4c3s2)cc1 | 0.26
COc1ccc(C(NC(=O)Cc2c(C)cc(C)cc2C)C2CC(O)C2)cn1 (stereo not drawn) | 0.94
Cn1c(=O)c2nc3ccc(NC(=O)C(F)(F)F)cc3nc2n(C)c1=O | 13.8*
CCOc1ccc(N2C(=O)c3[nH]nc(-c4ccc(OC)cc4)c3C2c2cccs2)cc1 (stereo not drawn) | -0.82
CCc1ccc(-n2c3nc(=O)[nH]c(=O)c-3cc3c(C)nn(-c4ccccc4)c32)cc1 | -1.74
COc1cccc(N2C(=O)C(CC(=O)Nc3ccc(Cl)cc3)N(Cc3ccc4c(c3)OCO4)C2=O)c1 (stereo not drawn) | -1.57
Cc1ncn(CC(=O)N2CCC3(CCCN(CC4CCC4)C3=O)C2)c1C (stereo not drawn) | -0.12

Molecules from the list above that have bromine:
SMILES | Bm FixLJ act
Cc1oc2c(cc(NS(=O)(=O)c3ccc(Br)cc3)c3ccccc32)c1C(=O)OCc1ccccc1 | -1.7
COc1ccc(C(=O)CC2(O)C(=O)N(Cc3ccccc3)c3ccc(Br)cc32)cc1 (stereo not drawn) | -1.66

(continued)
SMILES | Bm FixLJ act
CC(=O)c1ccc(NC(=O)Nc2ccc3snnc3c2)cc1 | -6.17
O=C(Cc1ccc(NC(=O)c2ccccc2-n2cncn2)cc1)NC1CC1 | -1.5
COc1cc(NC(=O)CCc2c(C)nc3nc(-c4cc(OC)cc(OC)c4)nn3c2C)cc(OC)c1 | 0.28
Cc1noc(CC2CCN(Cc3ccc(CCC(C)(C)O)cc3)CC2)n1 | -0.24
COc1cccc(CC(=O)Nc2ccc3nc(N4CCC(C)CC4)cc(C)c3c2)c1 | 1.65
O=C(CCCn1c(=O)c2ccccc2n(CC(=O)Nc2ccc(F)cc2F)c1=O)NCc1ccccc1Cl | -1.33
CN1CCC(OC(c2ccccc2)c2ccccc2)CC1 | 0.08
Cc1cccc(C)c1Nc1c(-c2ccccc2O)nc2ncccn12 | -0.16
Cc1ccc(-n2c(=O)c3c(cnn3C)n(Cc3ccccc3F)c2=O)cc1 | -1.16
COc1ccc(CNC(=O)CSCc2nc(-c3ccccc3C)oc2C)cc1 | -0.56
CCc1nc(SCC(=O)NC2CCOCC2C2CCOCC2)n[nH]1 (stereo not drawn) | -0.7
COc1ccc(Br)cc1C1C(C(=O)Nc2ccc(C)cc2C)=C(C)Nc2ncnn21 (stereo not drawn) | -0.05
Fc1ccc(CNc2cc(-c3ccccc3)nc3nncn23)cc1 | -2.87
CCc1nn(CC(=O)NC(C)CCc2ccccc2)c(=O)c2cc3cc(F)ccc3n12 (stereo not drawn) | 0
Cc1cc2c(cc1C)NC(CC(=O)Nc1ccccc1)C(=O)N2 (stereo not drawn) | -1.66
CCCCCn1c(=O)[nH]c2cc(C(=O)NCc3ccc(Cl)cc3)ccc2c1=O | 0.5
O=C(Nc1nc2ccccc2n1CCOc1ccccc1Cl)c1ccccc1 | 0.69
CCOCc1cc(CN2CCn3nc(C(O)CO)cc3C2)ccc1OC (stereo not drawn) | -1.7
Cc1nc2nc(NCc3cccc(Cl)c3)[nH]n2c(=O)c1Cc1ccccc1 | -1.46
COc1ccc(CCNC(=O)CCc2c(C)nc3c4c(C)cc(C)nc4nn3c2C)cc1OC | -0.25
Cc1ccc(/C(=C\CN2CCCC2)c2ccccn2)cc1 | -1.61&-0.51
COCCn1c(CO)nnc1C1CC(NC(=O)c2ccccc2C)C1 (stereo not drawn) | -2.44
Cc1nc2nc(-c3ccc(Cl)cc3Cl)nn2c(C)c1CCC(=O)Nc1ccc(F)cc1 | -1.48
N#Cc1ccc(-c2cccs2)nc1SCC(=O)Nc1cccc(C(F)(F)F)c1 | -2.85

Arranged by SMILES length (rising): some entries from above
SMILES | Bm FixLJ act
Cc1cc2c(cc1C)NC(CC(=O)Nc1ccccc1)C(=O)N2 (stereo not drawn) | -1.66
N#Cc1ccc(-c2cccs2)nc1SCC(=O)Nc1cccc(C(F)(F)F)c1 | -2.85
Cc1nc2nc(-c3ccc(Cl)cc3Cl)nn2c(C)c1CCC(=O)Nc1ccc(F)cc1 | -1.48

3 neighbouring records out of the list so far, quoted:
SMILES | Bm FixLJ act
COc1ccc(C(NC(=O)Cc2c(C)cc(C)cc2C)C2CC(O)C2)cn1 (stereo not drawn) | 0.94
Cn1c(=O)c2nc3ccc(NC(=O)C(F)(F)F)cc3nc2n(C)c1=O | 13.8*
CCOc1ccc(N2C(=O)c3[nH]nc(-c4ccc(OC)cc4)c3C2c2cccs2)cc1 (stereo not drawn) | -0.82

Next results.
SMILES | Bm FixLJ act
CCC(NC(=O)c1ccccc1-n1cnnc1)c1nc(C)c(C)s1 (stereo not drawn) | -1.07
O=C(CSc1nc2ccccc2n1Cc1cccc(F)c1)N1CCN(c2ccc(F)cc2)CC1 | 0.35
O=C1CC(C(=O)N2CCN(c3nsc4ccccc34)CC2)CN1Cc1ccccn1 (stereo not drawn) | -2.6
Cn1nccc1C(=O)N1CCCN(c2nc(-c3ccccc3)no2)CC1 | 1.32
CCNc1nc2c(c(=O)n(C)c(=O)n2C)n1CC(O)COc1ccccc1 (stereo not drawn) | 0.44
Cc1cc2oc3c(c(=O)c2cc1C)C1(C(=O)N(C)c2ccccc21)N(CCO)C3=O (stereo not drawn) | -0.54
Cc1ccc(C)c(NC(=O)CCCN2C(=O)COc3ccc(C)cc32)c1 | 0.4
COc1ccc(CNc2nc(-c3ccc(Cl)cc3)nn2S(=O)(=O)c2ccc(C)cc2)cc1 | -1.03
COc1cc(NC(=O)Cn2nnnc2-c2ccccc2F)cc(OC)c1OC | -0.13
Fc1ccc(-c2cc(-c3ccccc3)c3c(n2)-c2ccccc2OC3)cc1 | 0.44
O=C(c1cc(C2CC2)[nH]n1)N1CCN(c2ccc(Cl)c(Cl)c2)CC1 | -3.59
O=C(CC(Cc1ccccc1)c1ccco1)NCc1nnc2n1CCC2 (stereo not drawn) | -0.42
CCOC(=O)Nc1nc2ccccc2[nH]1 | -0.07
COc1ccc(-c2cc(C(F)(F)F)nc(SCC(=O)N(C)Cc3ccccc3)n2)cc1OC | -1.08
O=C(Cn1c(=O)n(-c2ccccc2)c(=O)c2sc3ccccc3c21)NC1CCCC1 | 2.51
O=C(NCCCN1CCN(c2ccc(F)cc2)CC1)c1cc2c(s1)-c1ccccc1OC2 | 0.09
Cc1nc(N2CCN(C)CC2)ncc1C(=O)N1CCCC(N)CC1 (stereo not drawn) | -1.55
COCC(C)NC(=O)c1cc2c(=O)n3cccc(C)c3nc2s1 (stereo not drawn) | -1.67
O=C(NCCC1=CCCCC1)c1ccc2c(c1)N(Cc1ccc(Cl)cc1)C(=O)c1ccccc1S2(=O)=O | -1.13
O=C(Cc1ccccc1C(F)(F)F)NCC1CCS(=O)(=O)CC1 | 0.29
O=c1oc2c3c(ccc2c2ccccc12)OCN(Cc1ccccc1Cl)C3 | 0.8
CCOc1ccccc1NC(=O)CSc1cc(=O)n(CC)c2ccccc12 | -0.49
Cc1ccc(C)c(Cn2c(=O)n(-c3ccc(Cl)cc3)c(=O)c3c(C)c(C)sc32)c1 | 0.42
COc1ccc(CCNC(=O)CCCCn2c(=O)c3ccccc3n(Cc3ccccc3)c2=O)cc1OC | -1.64
CO[C@@]12CCC(OCC3CC3)CC1N(C(=O)c1cccnc1)CC2 (stereo partly drawn) | -0.58
COc1ccc2c(c1)NC(c1ccc(F)cc1)=NC(c1ccc(F)cc1)=N2 | -0.03
CCOC(=O)C1CCCN(C(=O)Cn2ncc3c(C)n(Cc4ccc(Cl)cc4)c(C)c3c2=O)C1 (stereo not drawn) | -2.2

Screening results as filed in PubChem BioAssay.
